BJeLR lethal: MLPCN primary cell-based screen for lethality selective to Ras in HRASV12 cells | BJeLR (HRASV12) viability, CellTiter-Glo ATP luminescence, 48 h; reference of the scale not given here | inhibition, % (test concentration not listed) | 300,000 compounds, 0.17% hits | AID 1554, 2009;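 active = replicate mean above 50%; inconclusive = above 50% but judged a plate artefact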;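 note: 50 nL library stock added to about 25 µL; numbers are from one replicate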
PrP 5UTR inh: inhibition of PrP 5' UTR reporter expression; inhibition, % (concentration not given with the values); 340,000 compounds, 0.35% hits; AID 488862, 2010; cell-based PrP 5' UTR mRNA reporter, plate reader;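 active = every replicate at 50% or more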;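 note: 0 = median of the neutral control wells; tested in H4 reporter cells; numbers are from one replicate; inactives centre near -14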
Bead autofluor: counter-screen for toxin protease inhibitors: compound fluorescence | compound autofluorescence counterscreen, microsphere flow cytometry; hits give high values | fluorescence intensity (test concentration not listed) | 360,000 compounds, 3.1% hits;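 active = at least 3 SD above the mean of all compounds, about 16000 in these data; inconclusive = too few beads counted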;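 note: 100 nL of 1 mM stock went into each well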
Mtb hypoxia inh: PubChem AID 1159583; fluorescence inhibition, % (test concentration not listed); 300,000 compounds, 0.1% hits; M. tuberculosis hypoxia-regulated fluorescent reporter, fluorescence;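 active = 35 to 45% if threefold the growth effect, above 45% if 1.5-fold the growth effect; inactive = the rest, general growth blockers included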;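 note: wells of about 50 µL received 100 nL stock; 0% = vehicle wells and 100% = reference inhibitor wells; whole bacteria with a GFP reporter of the hypoxia response; strong numbers were not always called active; many hits fall short of the cut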
RN4220 kill: growth inhibition of S. aureus RN4220, primary screen, OD600; 16 h; inhibition, % (no concentration beside the values); 330,000 compounds, 0.33% hits;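 active = z-score of -3 or lower and OD600 up to 0.18 on both plates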;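 note: plate controls were untreated cells for no effect and reference antibiotic for full effect; stock transfer was 100 nL into about 80 µL; one replicate is shown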
ugtP null kill: growth inhibition of ugtP-null S. aureus, primary screen, RN4220 ugtP deletion, OD600. AID 1259309, 2017. 16 h; some inactives read as strong as hits. growth inhibition, % (no concentration beside the values). 330,000 compounds, 0.54% hits;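 active = z-score under -3 and OD600 up to 0.15 on both plates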;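 note: plate controls were untreated wells for no effect and antibiotic for full effect; wells of about 80 µL received 100 nL stock; the first replicate is given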
Mtb hypoxia inh growth: second read-out of Mtb hypoxia inh, no call of its own (marks repeat the call); growth inhibition, %; measured here: M. tuberculosis growth (absorbance);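 0% = vehicle and 100% = reference antibiotic; read after six days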
* hit, by the source's call; ? = inconclusive; . = not tested or not shown.

Results follow in this order: BJeLR lethal, PrP 5UTR inh, Bead autofluor, Mtb hypoxia inh, Mtb hypoxia inh growth, RN4220 kill, ugtP null kill
CC(CC1CC(C)(C)OC1=O)=NNC(N)=S (centres undefined)
 : ., ., ., 9, -3, 5.8, 7
CCN(CC(=O)Nc1c(F)cccc1F)C(=O)c1n[nH]c2ccccc12
 : -4, -7, 4950, 12, -9, 4.0, 6
CCOC(=O)N1CCC(NC(=O)CS(=O)Cc2nc(-c3ccccc3C)oc2C)CC1 (centres undefined)
 : -4, 5, 6025, 3, -11, -0.4, 6
O=C(Nc1ccccc1N1CCOCC1)C1CCCCN1S(=O)(=O)c1ccccc1 (centres undefined)
 : -12, -2, 4395, 13, 1, -0.7, 2
O=C(Nc1scc(-c2ccccc2)c1C(=O)O)c1ccco1
 : -2, -5, 3620, ., ., 16, -11
Cc1nn(C)cc1CN1CCCC(C(=O)c2ccc(-c3ccccc3)cc2)C1 (centres undefined)
 : -1, -2, 3111, -10, 5, 7.8, 62
O=c1[nH]c(-c2ccccc2)c(-c2ccccc2)[nH]1
 : -12, -13, 4485, 4, 11, 6.1, 2
Cc1ccc(/C=N/NC(=O)c2ccc(-c3ccccc3)cc2)o1
 : -3, -22, 3884, ., ., ., .
c1ccc(CSc2nnc(-c3sccc3-n3cccc3)o2)cc1
 : -1, -19, 3750, ., ., 7.6, 15
COc1ccc(C)cc1NC(=O)NNC(=O)c1cc2ccccc2cc1O
 : -11, -26, ?, 15, 5, 2.5, -9
N#Cc1nc(COc2ccccc2)oc1N1CCN(c2cccc(Cl)c2)CC1
 : 0, -5, 2988, ., ., -6.4, -1
CCCc1nc2ccccc2c(=O)n1CC(=O)c1ccccc1
 : -7, -22, 2416, 9, 7, 3.2, -2
Cn1c(=O)c2c(nc(NN=Cc3cccs3)n2Cc2ccc(Br)cc2)n(C)c1=O
 : ., ., ., -11, 12, 3.7, -3
O=C(NCc1ccco1)c1scc2c1OCCO2
 : -4, -3, 4117, 20, 15, -2.2, 6
CC[C@@]1(c2ccccc2C)C(=O)N(C(=O)OC)N1C(=O)OC
 : -12, -7, 3946, ., ., ., .
O=C1CCCN1S(=O)(=O)c1ccc(F)cc1
 : 8, -3, 4262, 2, 9, 1.7, 2
COc1ccccc1CCC(=O)Nc1ncc(C)s1
 : -3, -14, 3777, 2, -3, 2.6, 2
COc1cccc(C2(O)CCN(Cc3ccncc3)CC2)c1
 : -2, -9, 2050, 7, -10, 0.6, 6
Cc1ccccc1CNC(=O)CCc1ccccc1
 : 3, -10, 4699, ., ., -0.4, 5
O=C(Nc1cccnc1)c1cc(F)c(F)cc1Cl
 : -10, -37, 4323, -7, -2, 8.5, 3
COc1ccc(C(=O)c2ccccc2)cc1
 : -3, -27, 2033, 0, 2, 9.3, 8
S=C(NCc1ccc2c(c1)OCO2)NC1CCN(Cc2ccccc2)CC1
 : -14, -19, 5805, 6, 2, -1.7, 13
O=C(CSc1nnc(-c2cccnc2)o1)OC1CCCCC1
 : 2, -23, 8485, 6, 5, 7.2, -3
COc1cc(CC(=O)OCC(=O)NC2CCCCCC2)cc(OC)c1OC
 : ., -42, 3996, 4, 2, 3.2, 2
COc1cccc(C2=CC(=O)CCC2)c1
 : 5, -18, 4390, 6, -1, 9.5, 8
CS(=O)(=O)Nc1ccc(C2=NN(S(=O)(=O)c3ccccc3)C(c3cccs3)C2)cc1 (centres undefined)
 : 14, -2, 4757, -11, -2, 6.9, -13
CC1CCN(c2ccc(C(=O)OCC(=O)NCCN3C(=O)CSC3=O)cc2[N+](=O)[O-])CC1
 : 5, -14, 4098, -2, 2, 12, 5
Cn1ccsc1=NC(=O)c1ccc(=O)[nH]c1
 : 0, -12, 5296, 1, 10, 0.4, 4
Cc1ccc(-n2c(O)c(C=Nc3ccc(Br)cn3)c(=O)[nH]c2=O)cc1
 : 2, -14, 2335, 6, -1, 2.8, 2
CCCCC(CC(O)COCCC)c1n[nH]c(=S)n1-c1ccccc1 (centres undefined)
 : -7, -30, 4763, 5, 1, -0.7, -5

Complete entries from above. Order of screens: BJeLR lethal	PrP 5UTR inh	Bead autofluor	Mtb hypoxia inh	Mtb hypoxia inh growth	RN4220 kill	ugtP null kill
Record of CCCCC(CC(O)COCCC)c1n[nH]c(=S)n1-c1ccccc1 (centres undefined) → -7	-30	4763	5	1	-0.7	-5
Record of COc1cccc(C2(O)CCN(Cc3ccncc3)CC2)c1 → -2	-9	2050	7	-10	0.6	6

Molecules shown so far with fluorine:
Results follow in this order: BJeLR lethal, PrP 5UTR inh, Bead autofluor, Mtb hypoxia inh, Mtb hypoxia inh growth, RN4220 kill, ugtP null kill
CCN(CC(=O)Nc1c(F)cccc1F)C(=O)c1n[nH]c2ccccc12
 : -4, -7, 4950, 12, -9, 4.0, 6
O=C1CCCN1S(=O)(=O)c1ccc(F)cc1
 : 8, -3, 4262, 2, 9, 1.7, 2
O=C(Nc1cccnc1)c1cc(F)c(F)cc1Cl
 : -10, -37, 4323, -7, -2, 8.5, 3

More results follow.
Results follow in this order: BJeLR lethal, PrP 5UTR inh, Bead autofluor, Mtb hypoxia inh, Mtb hypoxia inh growth, RN4220 kill, ugtP null kill
COc1ccccc1/C=N/N(C(C)=O)c1nc(-c2ccc(F)cc2)cs1
 : -3, -104, 4276, ., ., ., .
Cc1nc(C)c(C(=O)N(c2ccc(C)c(C)c2)C(C(=O)NCc2ccco2)c2ccccc2)s1 (centres undefined)
 : 11, -50, 6983, 18, 6, 2.6, 4
CC(NC(=O)c1ccco1)C(=O)N1CC=C(c2ccccc2)CC1 (centres undefined)
 : ., -29, 4879, 6, 2, 4.0, 4
COC(=O)c1ccc(COc2nc(C)cc(C)c2C#N)o1
 : -7, -13, 9660, -3, -2, 1.2, 2
COc1cc(C(=O)N/N=C/c2sc(=O)n(-c3ccccc3)c2Cl)cc(OC)c1OC
 : -18, -17, 2073, ., ., ., .
O=C(COC(=O)CSc1ccc([N+](=O)[O-])cc1)NCc1ccco1
 : 4, 11, ., 11, 6, 5.6, 5
COc1ccc(C(=O)O)cc1S(=O)(=O)Nc1cccc(C(F)(F)F)c1
 : 1, -20, 3183, 3, 10, 3.8, 0
O=c1c2ccsc2ncn1Cc1cccc(C(F)(F)F)c1
 : -1, -4, 2342, 7, 10, -0.8, 7
COc1ccc(-c2csc(/C(C#N)=C/Nc3cc4oc5ccccc5c4cc3OC)n2)cc1
 : -8, -10, 3646, -4, -4, -8.9, 3
CC(C)(C)NC(=O)C(=O)NN=Cc1ccc(Br)cc1
 : ., ., ., 4, 2, -8.6, -6
O=C(NC1CC1)c1cccc(NC(=O)C2CCN(S(=O)(=O)c3cccc(C(F)(F)F)c3)CC2)c1
 : ., -62, 3495, 9, 10, 1.7, 6
COC(=O)CCn1nc(-c2ccc(C)cc2)c2ccccc2c1=O
 : 1, -13, 4040, -1, -10, 1.9, 4
Cc1ccc(-c2nc3ncccc3o2)cc1NC(=O)c1ccc([N+](=O)[O-])o1
 : -1, -19, 4473, 5, 1, 9.2, 8
O=[N+]([O-])c1ccc(NN=Cc2cn(Cc3ccc(F)cc3)c3ccccc23)nc1
 : ., ., ., 6, 5, -6.1, -22
Nc1ccn([C@H]2CC[C@@H](CO)O2)c(=O)n1
 : -4, -7, 5936, ., ., ., .
COC(=O)c1sc2nc3c(c(-c4cccs4)c2c1N)CCCC3
 : -7, 4, 2569, -6, -13, -1.5, -4
CCS(=O)(=O)NC(C)C(c1cccs1)N1CCN(c2ccc(F)cc2)CC1 (centres undefined)
 : 7, -14, 4632, 1, 1, -7.9, -2
CC(=NNC(=O)COc1ccccc1-c1ccccc1)c1ccc(O)cc1O
 : ., ., ., 8, 7, -2.8, 18
O=C(O)c1cc(CN2CCOCC2)oc1-c1ccccc1
 : 2, -13, 7592, 4, 5, 3.0, 3
COC(=O)c1cc2sc(Cl)cc2n1CC(=O)NCCC(C)C
 : 2, -21, 9383, 8, 4, 6.4, 8
Cc1ccc(C)c(NC(=O)C(CC(=O)O)Cc2ccccc2)c1 (centres undefined)
 : -7, -10, 3311, 5, -5, 7.4, 9
CCOC(=O)Cc1cc(=O)[nH]c(N=C(N)Nc2ccc(C)cc2C)n1
 : ., ., ., 1, -1, -0.6, -12
Cc1cc(-c2ccco2)c(C#N)c2nc3ccccc3n12
 : -4, -45, 3064, ., ., 12, 6
O=C(CSc1nc2[nH]ncc2c(=O)n1-c1ccccc1)NCCc1ccccc1
 : 4, -35, 4672, ., ., ., .
Cc1ccc(C(=O)NNC(=O)c2ccccc2O)cc1S(=O)(=O)N1CCCCC1
 : -7, -8, ., 6, 3, 11, 14
O=C(NC1CCCC1)c1cc(-c2ccccc2Cl)on1
 : -4, -156, 4855, 0, 5, 3.9, -1
COc1cccc(CNC(=O)CCC2CCCN(C(=O)c3ccoc3)C2)c1 (centres undefined)
 : 5, -3, 4355, 7, 5, 15, 7
Cc1ccn(CCC(=O)N2CCc3ccccc32)n1
 : -11, -11, 5608, 10, 1, 3.0, 0
O=S(=O)(c1ccc(Br)cc1Cl)N1CCN(CCO)CC1
 : 0, -11, 2860, 4, 9, 5.4, -2
CCOC(=O)C1(CCOc2ccccc2)CCN(Cc2ccc(OCCO)cc2)CC1
 : -1, -18, 2869, 7, -4, 3.9, 6
CCC(CC)NC(=O)Cn1c(C(C)NC(C)=O)nc2ccccc21 (centres undefined)
 : 7, -19, 4675, -6, -8, 11, 6
O=C(NC1CCCC1)c1ccc(CNc2c(N3CCOCC3)c(=O)c2=O)cc1
 : 2, -10, 4372, 4, -3, 5.7, 7
Cc1cc(C)n(CC(=O)N/N=C/c2cccs2)n1
 : 4, -28, 2130, ., ., ., .
Cc1cc(N2CCCC2)ccc1/C=N/n1cnnc1
 : -5, -2, 9732, ., ., ., .
COC(=O)c1ccccc1NC(=O)N1C[C@@H]2C[C@@H](C1)c1cccc(=O)n1C2
 : -5, -9, 4171, ., ., 3.8, -6
CC(C)n1c(Sc2nccn2C)nc2c1c(=O)n(C)c(=O)n2C
 : -6, -17, 9586, 4, 5, 6.5, -4
Cc1cccc(N(C)c2ncnc3onc(-c4ccc(F)cc4)c23)c1C
 : 6, -7, 4175, 6, 3, 4.7, 1
CCN(C(=O)CCS(=O)(=O)c1cccc2nonc12)c1ccc(F)cc1
 : -8, -4, 4835, 6, 14, 2.9, 5
CCCc1nc(SCc2ccc(Cl)cc2Cl)n[nH]1
 : 0, -33, 6197, 16, 5, 8.4, -19
COc1ccc(C)cc1NC(=O)CC(O)(C(F)(F)F)C(F)(F)F
 : 4, -4, ?, 7, 5, 8.2, 12

Reprinted at random: 3 compounds from above, in no set order.
Results follow in this order: BJeLR lethal, PrP 5UTR inh, Bead autofluor, Mtb hypoxia inh, Mtb hypoxia inh growth, RN4220 kill, ugtP null kill
CCC(CC)NC(=O)Cn1c(C(C)NC(C)=O)nc2ccccc21 (centres undefined)
 : 7, -19, 4675, -6, -8, 11, 6
Cc1cccc(N(C)c2ncnc3onc(-c4ccc(F)cc4)c23)c1C
 : 6, -7, 4175, 6, 3, 4.7, 1
CCCc1nc(SCc2ccc(Cl)cc2Cl)n[nH]1
 : 0, -33, 6197, 16, 5, 8.4, -19

Screening data from PubChem BioAssay.
